High-throughput results deposited in PubChem BioAssay by National Center for Advancing Translational Sciences (NCATS).
Sfp inh: blocks B. subtilis Sfp PPTase activity | Biochemical Sfp PPTase activity, qHTS | Potency, µM, without a hit: max response, negative = inhibition, usual class: inhibitors | 310,000 tested, 3.5% active | AID 1490; active = well fitted inhibition curve with a large enough effect; inconclusive = small, poorly fitted or top-dose-only effect, or another doubt; inactive = no such curve, though single readings can be large or run the other way;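 also: the enzyme is Sfp with the accession as filed and its product quenches rhodamine fluorescence; potency is read from the fitted curve at half-maximal effect; 0% = enzyme reaction without inhibitor and -100% = no enzyme wells; top concentration of the series not given in the record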
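Compounds were incubated with enzyme (final 15 nM) for 15 min at room temperature before substrate addition started the reaction. Fluorescence at 525 nm excitation, 598 nm emission was recorded immediately and after 30 minutes.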
Menin MLL FP FL: inhibitors of human menin-MLL interaction, wild-type MLL peptide. Fluorescence polarization, fluorescein-MLL peptide displacement from menin. FP activity change, % at 61.4 µM. 290,000 tested, under 10 active; inconclusive = falling polarisation curve, or a change in total fluorescence; inactive = total fluorescence flat and polarisation flat or rising; no compound was filed as active; the % refers to the polarisation; negative = inhibition;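 also: % of control where 0% means no effect; inhibitors lower the polarisation; unlabelled MLL peptide was the positive control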
gsp agonist: activates gsp, the McCune-Albright syndrome mutation; 340,000 tested, 0.13% active; gsp mutant cells, cAMP HTRF, 30 min; control for the full effect not named in the record; Potency, µM (series often up to 76.9 µM), without a hit: at the top dose activation (cAMP increase), most hits filed as activators; active = well fitted activation curve with a large enough effect; inconclusive = small, poorly fitted or top-dose-only effect, or another doubt; inactive = no such curve, though single readings can be large or run the other way; cell line not stated here;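 also: phosphodiesterase inhibitor Ro 20-1724 added with compounds to block cAMP breakdown; potency is read from the fitted curve at half-maximal effect; nearly all actives have a fitted effect of over 60% in size; about a fifth of the inactives were tested at one dose only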
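Cells in DMEM/10% FBS with G418 were pretreated with compounds in DMSO plus […] (300 uM stock) for 30 min at 37C. cAMP was measured by HTRF (cAMP-d2 plus anti-cAMP antibody-K) after 30 min at room temperature.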
TRPV1 potentiator: human TRPV1 potentiation; potentiation, % at 8.33 µM; 320,000 tested, 0.02% active; Q8NER1; AID 540277; TRPV1-expressing cells, Fluo-8 calcium influx, capsaicin EC20 potentiation; host cell line not named in the record; control for the full effect not named in the record; active means potentiation above 80%; inconclusive means 30% to 80%; inactive means below 30%; also: 0% is about no effect
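Fluo-8 calcium influx in TRPV1-expressing cells, kinetic read (ex 480/em 520 nm). Compound added and read 3 min for agonist activity, followed by capsaicin at EC20 final and 2 min further read for enhancement.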
ClpP mod: qHTS Assay for Activators of ClpP; 340,000 tested, 1.9% active; ATP-dependent Clp protease proteolytic subunit (Bacillus subtilis (strain 168)), P80244; Potency, µM (titrated, usually from 57.5 µM), inactives show top-dose activity change, negative = active; purified B. subtilis ClpP, FRET peptide cleavage, 20 min; AID 651965, 2013; active = well fitted falling curve with a large enough effect; inconclusive = small, poorly fitted or top-dose-only effect; inactive = no such curve, though single readings can be large or run the other way; also: potency is read from the fitted curve at half-maximal effect; the source files actives as falling curves though it sought activators and does not explain the sign; nearly all actives have a fitted effect of over 65% in size; many hits overshoot -100%
Target sequence (P80244 whole entry, looked up): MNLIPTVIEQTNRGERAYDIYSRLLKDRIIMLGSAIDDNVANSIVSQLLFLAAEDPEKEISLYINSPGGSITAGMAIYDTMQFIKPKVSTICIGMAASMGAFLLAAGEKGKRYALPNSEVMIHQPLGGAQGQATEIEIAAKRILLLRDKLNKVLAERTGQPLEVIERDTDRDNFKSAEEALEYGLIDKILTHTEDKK
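ClpP 10 microg/mL final, pH 8 Tris/KCl buffer with BSA, glycerol, Tween-20; compound pinned in; FRET-FV substrate; RT 20 min; Ex320/Em430; ΔFRET vs ADEP 5.8 microM, DMSO, no enzyme.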
gsp antagonist: gsp mutant antagonism. AID 624288. gsp-mutant cells, cAMP HTRF, 30 min; control for the full effect not named in the record. 340,000 tested, 0.4% active. Potency, µM (titrated, usually from 76.9 µM), without a hit: at the top dose activity change, negative = inhibition, most hits filed as inhibitors; active = falling curve of any shape with a large fitted effect; inconclusive = falling curve, mostly with a smaller effect; inactive = flat or rising curve; cell line not stated here;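 also: intracellular cAMP measured with PDE inhibitor Ro 20-1724 present during compound exposure; potency is read from the fitted curve at half-maximal effect; % is scaled to controls: 0 for no effect and ±100 for the full control effect; nearly all actives have a fitted effect of over 65% in size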
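HTRF cAMP read-out (cAMP-d2 plus anti-cAMP antibody-K in lysis buffer, 30 min RT). Before lysis, cells are exposed to compounds with […] for 30 min at 37C in DPBS containing Ca/Mg, BSA and Tween 20.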
TRPML1 inh: human mucolipin-1 channel inhibition | AID 624415 | Q9GZU1 | TRPML1-inducible cells, Ca2+ dye fluorescence, FDSS; hits give low values; inhibition of EC80 agonist-evoked calcium signal | 390,000 tested, 0.02% active | activity change, negative = inhibition, % (test concentration not listed); in the data active means activity change below about -50%; inconclusive means about -30% to -50%; inactive means above about -30%;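 also: stimulus is agonist 54-4 at its EC80 concentration; % is scaled to controls: 0 for no effect and ±100 for the full control effect; compound concentration not given in the record; the text of the record puts the active cut at -80%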
Target sequence (Q9GZU1 whole entry, looked up): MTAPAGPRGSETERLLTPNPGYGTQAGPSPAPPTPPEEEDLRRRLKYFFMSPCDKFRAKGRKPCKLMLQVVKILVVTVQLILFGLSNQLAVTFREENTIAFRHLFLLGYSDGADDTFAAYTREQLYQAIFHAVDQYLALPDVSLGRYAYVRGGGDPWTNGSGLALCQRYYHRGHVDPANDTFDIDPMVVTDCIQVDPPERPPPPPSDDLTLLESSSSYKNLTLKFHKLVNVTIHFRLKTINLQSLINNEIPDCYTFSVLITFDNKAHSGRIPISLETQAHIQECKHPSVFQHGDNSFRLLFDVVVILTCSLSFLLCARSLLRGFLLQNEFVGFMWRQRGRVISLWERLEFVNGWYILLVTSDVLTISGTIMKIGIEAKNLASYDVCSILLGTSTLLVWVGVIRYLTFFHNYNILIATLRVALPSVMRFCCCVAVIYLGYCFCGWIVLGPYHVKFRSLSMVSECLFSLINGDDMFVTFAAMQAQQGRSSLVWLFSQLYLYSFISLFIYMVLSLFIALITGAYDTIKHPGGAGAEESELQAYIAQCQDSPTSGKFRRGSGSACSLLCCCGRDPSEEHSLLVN
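Calcium fluorescence in TRPML1-DL cells induced overnight with Tet: a 110 s read after compound pin addition, then a 110 s antagonist read after challenge with 54-4 at 4 uM final (EC80).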
Starred values were filed as active, the others as inactive; ? = inconclusive; · = not tested or not shown; [ ] = another dose, or the depositor's remark. Compounds were not picked by outcome; 4.9% or so of the library scored in one or more.

SMILES | Sfp inh | Menin MLL FP FL | gsp agonist | TRPV1 potentiator | ClpP mod | gsp antagonist | TRPML1 inh
O=C(N/N=C\c1cn[nH]c1-c1ccc(Cl)cc1)c1cccs1 | 2% | 1.6 | 28% | -2 | -18% | 6% | -5
Cc1ccc(SCC(=O)NNC(=O)c2ccccc2)cc1C | 16% | 4.1 | -19%[15.4 µM] | -2 | 0.1% | -3% | -6
O=C(CN1C(=O)C2CCCCC2C1=O)N1CCN(c2ccccc2)CC1 (stereo not drawn) | 27% | -8.5 | -13% | 0 | 0.5% | -1% | 10
C(=N\Nc1ccc(-n2ccnc2)nn1)/c1ccccc1 | 89µM* | 0.1 | 4% | 2 | 0.2% | -2% | -12
COc1ccc(C(=O)Nc2ccccc2C(=O)Nc2cccnc2)cc1 | 5% | 1.2 | 17% | -12 | · | -9% | 15
Nc1cc(=O)nc(SCC(=O)Nc2ccccc2Cl)n1-c1ccccc1 | 20% | 0.1 | 14%[15.4 µM] | -1 | · | -13% | 10
CC(=O)c1cccc(NC(=O)NCc2ccccn2)c1 | -7% | 4.0 | 1% | -4 | -7.6% | -6% | 5
CCOC(=O)/C=C1\SCC(=O)N1CC(=O)Nc1ccccc1OC(F)F | 10% | 7.9 | -20% | 0 | -1.1% | 5% | 29
CCOc1ccc(NC(=S)Nc2ccccc2C2CC2)cc1 | -4% | -5.6 | -14% | -7 | · | 5% | 16
c1ccc(CCNCc2cccs2)nc1 | · | · | -2%[15.4 µM] | · | -27% | 0% | -13
CCOc1cc(/C=C2/N=C(c3ccc4c(c3)OCO4)OC2=O)ccc1OC(C)=O | · | · | -17% | -4 | ? | -10% | -12
O=C(Nc1ccccc1C(=O)N1CCOCC1)c1ccc([N+](=O)[O-])cc1 | 19% | -1.3 | -22% | -20 | -2.0% | 4% | 3
Cc1ccc(-n2nc(-c3ccc(N)cc3)cc2N)cc1 | -20% | -0.1 | 17% | -3 | 0.1% | -21% | 2
O=C(Cn1nc(C(F)(F)F)c2c1CCCC2)N1CCOCC1 | -6% | 1.1 | 6% | 9 | · | 10% | ?
C=CC[C@H]1CC(C)=C[C@H](CC=C)N1 | 17% | -0.2 | 4% | -26 | · | 5% | -8
COc1ccc2[nH]c3c(c2c1)CCN1C(=O)C(CC(=O)NCCCn2ccnc2)C[C@H](C(=O)N2CCOCC2)[C@@]31C (stereo partly drawn) | · | · | · | · | -3.9% | 7% | 5
Cc1nn(CC(=O)NCCCN2CCN(Cc3ccccc3)CC2)c(=O)c2cc(-c3ccccc3)nn12 | 5% | · | -23% | 6 | -0.2% | -2% | 2
CCC(CC)COC(=O)C1=C(C)NC(=O)NC1c1ccc(OC)cc1 (stereo not drawn) | 3% | 2.1 | -1%[15.4 µM] | ? | 1.2% | -4% | -6
C=CCN(C(=O)c1csnn1)C(C(=O)NC1CCCC1)c1ccc(OC)cc1 (stereo not drawn) | 10% | · | 11%[15.4 µM] | 0 | -2.9% | 1% | -10
Cc1ccc(C(=O)N/N=C/C2=Cc3ccccc3OC2C)cc1 (stereo not drawn) | 15% | 0.8 | -2%[15.4 µM] | 0 | -0.9% | -6% | -7

A draw from above in order of heavy-atom count, largest number first.
SMILES | Sfp inh | Menin MLL FP FL | gsp agonist | TRPV1 potentiator | ClpP mod | gsp antagonist | TRPML1 inh
COc1ccc2[nH]c3c(c2c1)CCN1C(=O)C(CC(=O)NCCCn2ccnc2)C[C@H](C(=O)N2CCOCC2)[C@@]31C (stereo partly drawn) | · | · | · | · | -3.9% | 7% | 5
C=CCN(C(=O)c1csnn1)C(C(=O)NC1CCCC1)c1ccc(OC)cc1 (stereo not drawn) | 10% | · | 11%[15.4 µM] | 0 | -2.9% | 1% | -10
O=C(Nc1ccccc1C(=O)N1CCOCC1)c1ccc([N+](=O)[O-])cc1 | 19% | -1.3 | -22% | -20 | -2.0% | 4% | 3
O=C(N/N=C\c1cn[nH]c1-c1ccc(Cl)cc1)c1cccs1 | 2% | 1.6 | 28% | -2 | -18% | 6% | -5
CC(=O)c1cccc(NC(=O)NCc2ccccn2)c1 | -7% | 4.0 | 1% | -4 | -7.6% | -6% | 5
c1ccc(CCNCc2cccs2)nc1 | · | · | -2%[15.4 µM] | · | -27% | 0% | -13

Additional results:
SMILES | Sfp inh | Menin MLL FP FL | gsp agonist | TRPV1 potentiator | ClpP mod | gsp antagonist | TRPML1 inh
CC1CCC2(CC1)NC(=O)N(CC(=O)Nc1cccc(S(=O)(=O)N(C)c3ccccc3)c1)C2=O (stereo not drawn) | · | · | -101%[inhibitor] | · | 0.8% | · | -10
OCC1(CC2CCCCO2)CCN(Cc2cccc(O)c2)CC1 (stereo not drawn) | 14% | -1.1 | 25% | -2 | -2.6% | 7% | -16
COc1ccc(/C(C)=N/NC(=O)C(NC(=O)c2ccccc2)c2n[nH]c(=O)c3ccccc23)c(OC)c1 (stereo not drawn) | 6% | -0.5 | -2%[15.4 µM] | ? | · | 14% | -10
Cc1ccc(C(=O)N2CCOCC2)cc1S(=O)(=O)N1CCCC1 | 22% | · | 11% | 2 | 1.1% | 3% | 7
COc1ccc(Sc2ccc(/C=C3\C(=O)NN(c4ccccc4)C3=O)o2)cc1 | -13% | 12 | 6% | 8 | -0.7% | -10% | 10
COc1ccc(NC(=S)N(CCN2CCOCC2)Cc2cc3cc4c(cc3[nH]c2=O)OCCO4)cc1 | 11% | -0.3 | 25% | -5 | 3.9% | -7% | 9
CCCCNC(=O)CSc1nc2ccc(N3CCOCC3)cc2c(=O)n1CCc1ccccc1 | -7% | 4.1 | 18% | -7 | -8.7% | -26% | 6
Cc1ccc(Br)cc1S(=O)(=O)N1CCN(c2ccccc2)CC1 | 2% | 11 | -13% | 3 | -1.2% | -3% | 13
O=C(NCCc1ccccc1)c1cccnc1N1CCCCCC1 | 3% | -0.8 | 5% | -7 | 1.1% | -6% | 14
Cn1c(C(=O)N2CCCC2)cc2c(=O)n(C)c3ccccc3c21 | 12% | -0.5 | 17% | ? | -10% | 6% | 2
Cc1cnc(NC(=O)c2cccs2)s1 | -7% | 7.7 | -23% | -8 | · | -14% | -5
COc1cc(C(=O)NNC(=O)c2nn(C)c(=O)c3ccccc23)cc(OC)c1OC | · | · | -3%[15.4 µM] | · | -0.9% | 12% | 7
COC(=O)CC1C(=O)NCCN1C(=O)Nc1ccc(Cl)cc1 (stereo not drawn) | 11% | 0.4 | ? | 4 | -0.2% | -5% | 9
O=C(NCCc1ccccc1)C1CCCN(c2ncnc3c2nc2n3CCCCC2)C1 (stereo not drawn) | 10% | 1.0 | 6% | -2 | 1.1% | 8% | 7
COc1ccc(CNc2ncnc3cc(Cl)ccc23)cc1OC | 5% | -5.6 | 0%[15.4 µM] | -8 | 0.9% | -2% | 18
COC(=O)COc1cc(OCC(=O)OC)c2c(C)c(Cl)c(=O)oc2c1 | 4% | 0.2 | ? | -7 | 14µM* | -16% | -14
Cc1ccccc1C(=O)NCCNc1ccc([N+](=O)[O-])cc1 | 18% | 2.2 | -82%[inhibitor] | 15 | 0.7% | 1% | -18
Cc1ccsc1C(=O)OCC(=O)NCCNC(=O)COC(=O)c1sccc1C | · | · | -2%[15.4 µM] | 30 | 1.8% | 2% | -2
Cc1ccccc1NC(=O)c1ccccn1 | 2% | -1.2 | -13% | · | 1.6% | 2% | ·
Fc1ccc(-c2ncc3ccccn23)cc1 | -21% | ? | -8%[15.4 µM] | 7 | -8.9% | -10% | 4
Cc1onc(-c2c(F)cccc2Cl)c1C(=O)N(Cc1ccccc1)C(C)C | 5% | 1.9 | 8% | -16 | · | -7% | -16
CC(C)(C)NC(=O)NC(=O)CN1C(=O)NC(C)(c2ccccc2)C1=O (stereo not drawn) | 13% | 0.3 | -3%[15.4 µM] | 8 | · | 9% | 6
Cc1cnc(C(=O)Nc2ccc(S(=O)(=O)N(C(C)C)C(C)C)cc2)cn1 | 22% | 2.4 | -2% | -9 | -6.2% | 1% | 5
O=C(c1ccco1)N1CCN(c2ncnc3sc4c(c23)CCC4)CC1 | 79µM* | 4.2 | 9% | -10 | -7.1% | -12% | -6
C=CCn1c(=O)c2ccccc2n2c(SCC(=O)N(C)C)nnc12 | 5% | -1.9 | ? | 12 | · | -5% | 53
Cc1ccc(S(=O)(=O)Nc2cccc(C(=O)N3CCN(c4ccccc4O)CC3)c2)cc1F | · | · | 62%[15.4 µM] | ? | · | -24% | 9
O=C(Nc1ccc2c(c1)OCCO2)c1ccoc1 | 11% | 4.2 | -6%[15.4 µM] | -6 | 0.4% | 1% | -3
CCOc1cc(CNCCO)cc(Br)c1OCc1ccc(Cl)cc1 | ? | 3.1 | ? | · | -0.4% | 22% | -1
CCN(CC)c1ccc2c(C)c(-c3ccc(N)cc3)c(=O)oc2c1 | -10% | 12 | -4% | -1 | -5.2% | -6% | 6
Cc1nc2sc(C(c3ccco3)N3CCC4(CC3)OCCO4)c(O)n2n1 (stereo not drawn) | · | · | -26% | · | -0.3% | 3% | -10
CC1CCCC(C)N1C(=O)CSc1nccc(=O)[nH]1 (stereo not drawn) | 19% | 0.5 | -14% | -1 | 1.1% | 3% | 7
COC(=O)Nc1ccc(S(=O)(=O)N2CCCCC2C(=O)O)cc1 (stereo not drawn) | 24% | 2.0 | ? | 5 | · | 5% | -10
COCCNC(=O)C1CC(c2ccccc2[N+](=O)[O-])=NO1 (stereo not drawn) | 11% | -1.0 | · | 13 | 1.0% | 12% | 1
COC(=O)c1ccc(/C=N/OCC(=O)NC2CCCC(C)C2C)cc1 (stereo not drawn) | 10% | 2.2 | -10% | -5 | 1.5% | -19% | 1
